Screens from PubChem BioAssay.
PD-1 reverse act = activators reversing PD-1 mediated T-cell inhibition | primary human CD4 T cells, PD-L1 beads, CellTiter-Glo 96 h | activation, % (test concentration not listed) | 29,000 tested, under 10 active | AID 2316;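 active = replicate mean of 50% or more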;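 note: 0% = median vehicle wells and 100% = positive control; 100 nL library stock added to about 50 µL; numbers are from one replicate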
YB-1 expression = YB-1 expression inhibition | U2OS, qRT-PCR YB-1 vs CDIP delta delta Cp, 16 h; stronger effect = higher value; zero = DMSO, each unit about twofold | delta delta Cp (YB-1 minus CDIP) (test concentration not listed) | hit rate 0.37% among 30,000 | AID 434959;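 active = delta delta Cp rounded down to an integer at or above 3, about 3 SD of DMSO wells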;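 note: higher means less YB-1 transcript or more CDIP transcript relative to DMSO; stock transfer was 100 nL into about 100 µL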
MITF inhib = MITF inhibition; inhibition, % (test concentration not listed); AID 2240; TRPM1 promoter luciferase, luminescence, 24 h; hit rate 0.28% among 37,000;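 active = most replicates at 85% or more, or half of them and the mean; inconclusive = half reach 85% but not the mean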;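 note: human melanocyte line stably carrying TRPM1 promoter luciferase reporter; 0% = vehicle wells and 100% = a positive control; the first replicate is given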
Shh pathway inh = Sonic Hedgehog pathway inhibition | Shh-LIGHT2 Gli-luciferase reporter, 30 h | inhibition, % (no concentration beside the values) | hit rate 2.1% among 22,000;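 active = replicate mean of 65% or more; inconclusive = mean lower but half the replicates past it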;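 note: pathway switched on by Shh-conditioned medium diluted 1 in 25 in low serum; 100 nL library stock added to about 40 µL; 0% = median of neutral wells and 100% = positive control level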
Numbers without * were called inactive; ? = inconclusive; nt = no result given. An excerpt. The share of hits here may be higher or lower than overall.

Values run as follows: PD-1 reverse act, YB-1 expression, MITF inhib, Shh pathway inh
- Cc1ccc([N+](=O)[O-])cc1NC(=O)C(C)NS(=O)(=O)c1ccc(F)cc1 (stereo not given)
    1.5, nt, 7, nt
- C[C@@H]1CN([C@@H](C)CO)C(=O)c2cc(NS(=O)(=O)c3cccs3)ccc2O[C@H]1CN(C)Cc1ccc(C(F)(F)F)cc1
    -2.8, 0.21, 8, nt
- C[C@@H]1CCCCO[C@H](CN(C)S(=O)(=O)c2cn(C)cn2)[C@@H](C)CN([C@H](C)CO)C(=O)c2cc(NC(=O)Nc3ccc(C(F)(F)F)cc3)ccc2O1
    nt, -0.42, -13, -12
- C[C@@H]1CN([C@H](C)CO)C(=O)c2cc(NC(=O)Nc3ccc(F)cc3)ccc2O[C@@H]1CN(C)S(C)(=O)=O
    0.1, -0.016, 9, -17
- O=C(CSc1nnc(-c2ccco2)n1-c1ccccc1)N1CCOCC1
    1.8, nt, -8, nt
- Cc1cccc(N(CC(=O)Nc2ccccc2-c2ccccc2)S(C)(=O)=O)c1C
    -2.5, nt, -9, nt
- C[C@H](CO)N1C[C@H](C)[C@@H](CN(C)S(=O)(=O)c2cccs2)Oc2c(NS(=O)(=O)c3cn(C)cn3)cccc2C1=O
    3.5, -0.06, 1, -10
- CC(C)NC(=O)N(C)C[C@@H]1Oc2c(NC(=O)Nc3ccccc3)cccc2C(=O)N([C@@H](C)CO)C[C@@H]1C
    2.8, -0.32, -1, 2
- C[C@H](CO)N1C[C@H](C)[C@@H](CN(C)S(=O)(=O)c2ccc(F)cc2)Oc2ccc(NC(=O)c3ccncc3)cc2C1=O
    2.6, -0.65, -7, -5
- Cc1cccc(C)c1NC1=NC(C)(CO)CS1 (stereo not given)
    1.4, -0.26, -5, -22
- C[C@@H]1CN([C@H](C)CO)C(=O)c2cc(NC(=O)Nc3ccc4c(c3)OCO4)ccc2O[C@H]1CN(C)S(=O)(=O)c1ccccc1
    -0.6, 0.045, -31, -6
- CC(=O)c1ccc(OC(=O)C(Cc2ccccc2)N2C(=O)C3C4C=CC(C5CC45)C3C2=O)cc1 (stereo not given)
    -1.4, nt, -1, nt
- C[C@H](CO)N1C[C@H](C)[C@H](CN(C)S(=O)(=O)c2cccs2)Oc2ccc(NC(=O)CCCN(C)C)cc2C1=O
    0.7, 0.042, 6, -17
- COc1ccc(OC)c(NC(=O)CSc2nncc3ccccc23)c1
    -4.8, nt, 1, nt
- CC(C)(C)NC[C@H](O)COc1nsnc1N1CCOCC1
    0.4, 1.1, 2, -57
- O=C(CSc1nc2ccccc2c(=O)n1Cc1ccco1)c1ccc(Br)cc1
    0.3, nt, -6, nt
- Cc1ccc(C(O)(COC(=O)C(C)C)COC(=O)C(C)C)c(O)c1
    -12, -0.28, -14, -22
- C[C@H](CO)N1C[C@H](C)[C@H](CN(C)S(=O)(=O)c2ccccc2)Oc2ccc(NS(=O)(=O)c3cccs3)cc2C1=O
    -4.0, 0.0067, -9, nt
- COc1ccc(NC(=O)N(C)C[C@H]2Oc3ccc(NS(=O)(=O)c4ccccc4)cc3C(=O)N([C@H](C)CO)C[C@@H]2C)cc1
    0.5, -0.013, -3, nt
- C[C@@H]1CCCCO[C@H](CN(C)S(=O)(=O)c2ccc(Cl)cc2)[C@@H](C)CN([C@H](C)CO)C(=O)c2cc(NS(=O)(=O)c3cn(C)cn3)ccc2O1
    nt, 0.097, -1, -21

Shown with each value named: four of the compounds above
Cc1cccc(N(CC(=O)Nc2ccccc2-c2ccccc2)S(C)(=O)=O)c1C
  PD-1 reverse act = -2.5; YB-1 expression = nt; MITF inhib = -9; Shh pathway inh = nt
C[C@H](CO)N1C[C@H](C)[C@@H](CN(C)S(=O)(=O)c2cccs2)Oc2c(NS(=O)(=O)c3cn(C)cn3)cccc2C1=O
  PD-1 reverse act = 3.5; YB-1 expression = -0.06; MITF inhib = 1; Shh pathway inh = -10
CC(C)NC(=O)N(C)C[C@@H]1Oc2c(NC(=O)Nc3ccccc3)cccc2C(=O)N([C@@H](C)CO)C[C@@H]1C
  PD-1 reverse act = 2.8; YB-1 expression = -0.32; MITF inhib = -1; Shh pathway inh = 2
C[C@H](CO)N1C[C@H](C)[C@@H](CN(C)S(=O)(=O)c2ccc(F)cc2)Oc2ccc(NC(=O)c3ccncc3)cc2C1=O
  PD-1 reverse act = 2.6; YB-1 expression = -0.65; MITF inhib = -7; Shh pathway inh = -5

Other structures:
Values run as follows: PD-1 reverse act, YB-1 expression, MITF inhib, Shh pathway inh
- Cc1noc(C)c1S(=O)(=O)Nc1ccc2c(c1)C(=O)N([C@H](C)CO)C[C@H](C)[C@H](CN(C)S(=O)(=O)c1ccc(Cl)cc1)O2
    -2.9, -0.36, -3, 22
- C[C@H](CO)N1C[C@H](C)[C@H](CN(C)S(=O)(=O)c2ccc(F)cc2)Oc2ccc(NC(=O)Nc3ccc(F)cc3)cc2C1=O
    0.3, -0.12, -36, -2
- C[C@@H]1CN([C@H](C)CO)C(=O)c2cc(NC(=O)Nc3cccc4ccccc34)ccc2O[C@@H]1CN(C)S(C)(=O)=O
    1.7, 0.13, -5, -3
- C[C@H](CO)N1C[C@H](C)[C@H](CN(C)S(=O)(=O)c2cccs2)Oc2ccc(NS(=O)(=O)c3cn(C)cn3)cc2C1=O
    nt, 0.087, -4, nt
- C[C@@H]1CN([C@H](C)CO)C(=O)Cc2cc(NS(=O)(=O)c3ccc(Cl)cc3)ccc2O[C@@H]1CN(C)Cc1ccc2c(c1)OCO2
    3.6, -0.042, -13, 7
- O=C(CSc1n[nH]c(-c2ccc(Cl)cc2)n1)Nc1c(F)cc(F)cc1Br
    -0.3, nt, 36, nt
- C[C@@H]1CN([C@@H](C)CO)C(=O)Cc2cc(NC(=O)Nc3ccc4c(c3)OCO4)ccc2O[C@@H]1CN(C)Cc1ccccc1
    0.6, 0.054, -6, 8
- C[C@H](CO)N1C[C@H](C)[C@H](CN(C)C)Oc2c(NS(C)(=O)=O)cccc2C1=O
    nt, -0.23, 2, -47
- Cc1ccccc1NC(=O)c1ccc(C)c(S(=O)(=O)Nc2cc([N+](=O)[O-])ccc2C)c1
    -0.7, nt, 29, nt
- C[C@@H]1CN([C@H](C)CO)C(=O)c2cccc(NC(=O)Nc3ccccc3)c2O[C@H]1CN(C)Cc1ccc(C(=O)O)cc1
    nt, 0.27, 8, 23
- Cc1oc2nc(SCC(=O)NC3CCCCC3)nc(N)c2c1C
    1.1, nt, 6, nt
- Cc1ccc(NC(=O)c2ccc(OC(=O)CCN3C(=O)c4ccccc4C3=O)cc2)cc1
    0.5, nt, -42, nt
- Cc1cc(C(=O)Nc2cccc3c2O[C@@H](CN(C)C(=O)Nc2ccc(F)cc2)[C@@H](C)CN([C@H](C)CO)C3=O)n(C)n1
    nt, -0.35, -12, 26
- Cc1ccc(S(=O)(=O)Nc2cccc3c2O[C@@H](CN(C)Cc2ccc(C(F)(F)F)cc2)[C@@H](C)CN([C@H](C)CO)C3=O)cc1
    -3.6, 0.042, 22, 13
- O=[N+]([O-])c1cc(C(F)(F)F)ccc1Sc1nnc(CCCO)n1-c1ccccc1
    -4.1, nt, 3, nt
- COc1ccc(S(=O)(=O)N(C)C[C@@H]2Oc3c(NC(=O)Nc4c(C)noc4C)cccc3C(=O)N([C@H](C)CO)C[C@H]2C)cc1
    0.7, -0.27, -1, -22
- COc1ccc2c(c1)OCC(Cc1ccc(OC)c(O)c1)C2=O (stereo not given)
    nt, -0.022, 13, 19
- Cc1ccc(S(=O)(=O)Nc2ccc3c(c2)C(=O)N([C@H](C)CO)C[C@H](C)[C@@H](CN(C)C(=O)Nc2ccc(F)cc2)O3)cc1
    0.4, -0.42, -1, -16
- C[C@@H]1CCCCO[C@@H](CN(C)C(=O)Nc2ccc(F)cc2)[C@@H](C)CN([C@H](C)CO)C(=O)c2cc(NS(=O)(=O)c3ccc(Cl)cc3)ccc2O1
    -4.9, 0.38, 54, -41
- Cc1cc(C)c(S(=O)(=O)NCC(=O)Nc2ccc(I)cc2)c(C)c1
    -0.1, nt, -15, nt

Next section
mol | PD-1 reverse act | YB-1 expression | MITF inhib | Shh pathway inh
Cc1noc(C)c1NC(=O)Nc1ccc2c(c1)CC(=O)N([C@@H](C)CO)C[C@H](C)[C@H](CN(C)CC1CCCCC1)O2 | 0.9 | 0.16 | -21 | 2
COc1ccc(S(=O)(=O)N(C)C[C@H]2Oc3c(NC(=O)c4ccc(-c5nccs5)cc4)cccc3C(=O)N([C@H](C)CO)C[C@H]2C)cc1 | 0.2 | -0.028 | 0 | -36
C[C@H]1CN([C@@H](C)CO)C(=O)Cc2cc(NC(=O)Nc3cccc4ccccc34)ccc2O[C@H]1CN(C)Cc1ccc(Oc2ccccc2)cc1 | -1.2 | -0.12 | 12 | -29
C[C@H]1CN([C@@H](C)CO)C(=O)c2cc(NC(=O)C3CCCCC3)ccc2O[C@H]1CN(C)Cc1ccncc1 | -1.2 | 0.054 | -1 | nt
CC(C)NC(=O)N(C)C[C@@H]1Oc2c(NC(=O)Nc3ccc(C(F)(F)F)cc3)cccc2C(=O)N([C@H](C)CO)C[C@H]1C | -4.3 | -0.074 | 7 | ?
C[C@@H]1CN([C@@H](C)CO)C(=O)c2cccc(NC(=O)c3ccncc3)c2O[C@H]1CN(C)C(=O)Nc1ccc(C(F)(F)F)cc1 | 1.1 | -0.025 | 2 | -29
COC(=O)c1ccccc1NC(=O)CSc1nnc(-c2ccco2)n1-c1ccccc1 | -0.3 | nt | -18 | nt
CC(=O)N[C@@H](CSC/C=C(\C)CC/C=C(\C)CC/C=C(\C)CCC=C(C)C)C(=O)O | nt | 0.079 | -29 | -38
Cn1c(SCc2nc(-c3ccc(Cl)cc3)no2)nnc1-c1cccs1 | -0.2 | nt | 2 | nt
C[C@@H]1CN([C@H](C)CO)C(=O)c2cccc(NS(=O)(=O)c3ccccc3)c2O[C@@H]1CN(C)S(=O)(=O)c1ccc(Cl)cc1 | nt | 0.44 | -4 | -8
Cc1nn(Cc2cccc(C(=O)Nc3ccccc3F)c2)c(C)c1Cl | 1.8 | nt | -45 | nt
COc1ccc(N(Cc2cc3cc(C)ccc3[nH]c2=O)C(=O)c2ccccc2)cc1 | -3.7 | nt | 5 | nt
CNC[C@@H]1Oc2ccc(NC(=O)Nc3ccc(C(F)(F)F)cc3)cc2C(=O)N([C@@H](C)CO)C[C@H]1C | 1.6 | -0.17 | -6 | 3
C[C@H](CO)N1C[C@H](C)[C@@H](CN(C)C(=O)Nc2ccc(C(F)(F)F)cc2)Oc2c(NS(=O)(=O)c3cn(C)cn3)cccc2C1=O | -0.5 | -0.5 | 7 | -20
C[C@@H]1CCCCO[C@@H](CN(C)C(=O)Nc2ccc(C(F)(F)F)cc2)[C@@H](C)CN([C@H](C)CO)C(=O)c2cc(NS(=O)(=O)c3cccs3)ccc2O1 | -8.1 | 0.18 | 25 | 83*
Cc1ccc(S(=O)(=O)N(C)CC(=O)Nc2ncc(C(F)(F)F)cc2Cl)cc1 | 0.6 | nt | -21 | nt
CC(C)NC(=O)N(C)C[C@@H]1OCCCC[C@@H](C)Oc2ccc(NC(=O)CCCN(C)C)cc2C(=O)N([C@H](C)CO)C[C@@H]1C | nt | 0.15 | -13 | -57
C[C@@H]1CCCCO[C@@H](CN(C)Cc2ccncc2)[C@@H](C)CN([C@H](C)CO)C(=O)c2cc(NC(=O)Nc3ccc(C(F)(F)F)cc3)ccc2O1 | nt | -0.1 | 19 | 50
CC(C)NC(=O)Nc1ccc2c(c1)C(=O)N([C@H](C)CO)C[C@@H](C)[C@H](CN(C)Cc1ccc(C(=O)Nc3ccccc3N)cc1)O2 | 1.8 | -0.19 | -17 | nt
Cc1ccc(NC(=S)C(C#N)C(N)=O)cc1Cl (stereo not given) | -6.8 | -0.7 | -7 | 39
Cc1noc(C)c1S(=O)(=O)Nc1ccc2c(c1)C(=O)N([C@H](C)CO)C[C@H](C)[C@H](CN(C)C(=O)Nc1cccc3ccccc13)O2 | 0.3 | -0.066 | -36 | nt
C[C@@H]1CN([C@H](C)CO)C(=O)c2cccc(NC(=O)Nc3ccc(C(F)(F)F)cc3)c2O[C@H]1CN(C)CC1CCCCC1 | -7.5 | 0.46 | 19 | 37
CCOc1ccccc1NC(=O)CN1C(=O)C(=O)c2ccccc21 | -13 | nt | 13 | nt
O=S(=O)(Nc1nc2ccccc2nc1Nc1ccccc1F)c1ccc(Cl)cc1 | 0.4 | 0.24 | 34 | 98*
CC(C)NC(=O)Nc1ccc2c(c1)CC(=O)N([C@@H](C)CO)C[C@H](C)[C@@H](CN(C)C(=O)NC1CCCCC1)O2 | 0.3 | -0.21 | 3 | ?
C[C@H]1CN([C@@H](C)CO)C(=O)c2cc(NC(=O)Nc3cccc4ccccc34)ccc2O[C@H]1CN(C)Cc1ccc(C(F)(F)F)cc1 | 2.3 | 0.15 | 29 | nt
COC(=O)c1cccc(NC(=O)COc2ccc(I)cc2)c1 | 0.5 | nt | -90 | nt
C[C@H](CO)N1C[C@H](C)[C@H](CN(C)S(=O)(=O)c2cccs2)Oc2ccc(NC(=O)Cc3cn(C)c4ccccc34)cc2CC1=O | 1.0 | -0.89 | 10 | 11
CC#CC(=O)Nc1ccc2ncnc(Nc3cccc(Br)c3)c2c1 | -15 | -0.014 | 0 | -37
Cc1ccc(S(=O)(=O)N(C)C[C@H]2Oc3c(NC(=O)Nc4ccc(C(F)(F)F)cc4)cccc3C(=O)N([C@@H](C)CO)C[C@@H]2C)cc1 | -0.6 | 0.34 | 3 | -29
